Source: PubChem BioAssay
D2 PAM: Beta-Arrestin HTS for Positive Allosteric Modulators of the Human D2 Dopamine Receptor: Potentiators; D(2) dopamine receptor (Homo sapiens), P14416; DiscoveRx D2 beta-arrestin cells, luminescence, 90 min; 100% = 57 uM dopamine signal; 360,000 compounds, 0.23% hits; potentiation, % (test concentration not listed); active = potentiation of 50% or more; inconclusive = 30% to 50%; inactive = 30% or less;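 also: compound concentration not given in the record; tested on top of an EC20 dose of dopamine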
Target sequence (P14416 whole entry, looked up): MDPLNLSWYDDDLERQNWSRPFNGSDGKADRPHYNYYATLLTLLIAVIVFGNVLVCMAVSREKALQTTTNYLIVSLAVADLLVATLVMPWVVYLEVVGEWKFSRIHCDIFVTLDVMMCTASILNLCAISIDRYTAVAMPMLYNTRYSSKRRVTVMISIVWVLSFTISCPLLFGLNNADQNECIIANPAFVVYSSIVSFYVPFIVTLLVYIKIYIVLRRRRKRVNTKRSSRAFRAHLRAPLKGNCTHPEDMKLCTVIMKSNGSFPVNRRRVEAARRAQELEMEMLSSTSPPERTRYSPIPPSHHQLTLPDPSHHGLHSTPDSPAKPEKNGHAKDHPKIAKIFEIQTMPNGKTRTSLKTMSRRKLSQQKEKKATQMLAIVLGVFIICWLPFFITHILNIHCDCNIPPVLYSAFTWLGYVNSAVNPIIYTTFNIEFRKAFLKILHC
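PathHunter beta-arrestin assay in DiscoveRx D2 cells. Compounds were added with an EC20 of dopamine (50 nM final) for 90 min at 37 deg C. Luminescence was read 1 h after detection reagent, with 57 uM dopamine as the EC100 control.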
Six1-Eya2 blk: qHTS Assay for Inhibitors of the Six1/Eya2 Interaction; Homeobox protein SIX1 (Homo sapiens) + Protein phosphatase EYA2 (Homo sapiens), …; AlphaScreen GST-Six1/His-Eya2 binding, biochemical; hits give low values; control for the full effect not named in the record; activity change, % (no concentration beside the values); 360,000 compounds, 0.56% hits; in the data active = activity change below about -65%; inconclusive = about -30% to -65%; inactive = above about -30%; also: % is scaled to controls: 0 for no effect and ±100 for the full control effect
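Six1/Eya2 binding was read as AlphaScreen signal after compounds were pinned into GST-Six1 plus His-tagged Eya2 (5X stock 250/500 nM) in pH 8.0 Tris/NaCl/TCEP buffer, beads added, then incubated 1 h, 37 C, dark.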
TRPML1 ag: qHTS for Agonists of the Human Mucolipin Transient Receptor Potential 1 (TRPML1) | Mucolipin-1 (Homo sapiens), Q9GZU1 | TRPML1-expressing cells, Ca2+ dye fluorescence, FDSS; host cell line not named in the record; reference of the full effect not given here | activation, % (test concentration not listed) | 410,000 compounds, 0.12% hits; in the data active = activation above about 50%; inconclusive = about 30% to 50%; inactive = below about 30%; also: 0% is about no effect; the text of the record puts the active cut at 80%
Target sequence (Q9GZU1 whole entry, looked up): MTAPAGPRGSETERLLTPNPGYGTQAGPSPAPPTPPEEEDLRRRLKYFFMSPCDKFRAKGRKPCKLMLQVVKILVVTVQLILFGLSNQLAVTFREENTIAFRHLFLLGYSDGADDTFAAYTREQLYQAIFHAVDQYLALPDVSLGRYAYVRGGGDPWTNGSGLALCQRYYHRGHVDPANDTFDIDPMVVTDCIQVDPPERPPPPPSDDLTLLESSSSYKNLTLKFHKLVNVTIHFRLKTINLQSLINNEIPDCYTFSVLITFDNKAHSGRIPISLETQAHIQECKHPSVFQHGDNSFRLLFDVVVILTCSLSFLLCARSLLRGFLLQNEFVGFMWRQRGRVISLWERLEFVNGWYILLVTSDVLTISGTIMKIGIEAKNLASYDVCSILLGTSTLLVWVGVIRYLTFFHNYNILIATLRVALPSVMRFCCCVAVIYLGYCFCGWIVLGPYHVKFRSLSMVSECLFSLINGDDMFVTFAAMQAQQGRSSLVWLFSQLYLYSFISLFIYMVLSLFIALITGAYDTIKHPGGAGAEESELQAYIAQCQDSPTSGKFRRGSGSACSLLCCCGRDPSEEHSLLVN
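Agonist activity was taken from a 110 s kinetic Ca2+ dye read on the FDSS after pinning compounds onto TRPML1-DL cells. The cells were seeded at 1,500/well with Tet inducer, incubated about 16 h, then dye-loaded at room temperature.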
TRPML1 inh: qHTS for Inhibitors of the Human Mucolipin Transient Receptor Potential 1 (TRPML1) | Mucolipin-1 (Homo sapiens), Q9GZU1 | TRPML1-inducible cells, Ca2+ dye fluorescence, FDSS; hits give low values; inhibition of EC80 agonist-evoked calcium signal | activity change, negative = inhibition, % (no concentration beside the values) | 390,000 compounds, 0.02% hits | AID 624415, 2012; in the data active means activity change below about -50%; inconclusive means about -30% to -50%; inactive means above about -30%;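 also: stimulus is agonist 54-4 at its EC80 concentration; % is scaled to controls: 0 for no effect and ±100 for the full control effect; compound concentration not given in the record; the text of the record puts the active cut at -80%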
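Tet-induced TRPML1-DL cells loaded with Ca8 no-wash calcium dye were read kinetically on FDSS. Compound addition was followed by EC80 agonist 54-4 (4 uM final); inhibition was read over 110 s.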
D2 agonist: Beta-Arrestin HTS for Positive Allosteric Modulators of the Human D2 Dopamine Receptor: Agonists | DiscoveRx PathHunter D2 beta-arrestin, luminescence, 90 min; 100% = 57 uM dopamine signal | activation, % (no concentration beside the values) | 360,000 compounds, 0.084% hits | D(2) dopamine receptor (Homo sapiens), P14416; in the data active = activation above about 40%; inconclusive = about 15% to 40%; inactive = below about 15%; also: compound concentration not given in the record; the text of the record calls up to 30% inactive
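DiscoveRx PathHunter D2 beta-arrestin cells (2,100/well) attached overnight, then compound-stimulated 90 min at 37 C in HBSS/10 mM HEPES/0.1% Tween-20 buffer; beta-galactosidase complementation read by luminescence after 1 h at ambient temperature. Dopamine 57 uM final (EC100) as control.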
PINK1 expr mod: A Quantitative High throughput Screen to Identify Chemical Modulators of PINK1 Expression; PINK1 immunofluorescence, high-content cytometry, 24 h; Potency, µM (highest dose often 76.6 µM), for inactives: at the highest dose activation (PINK1 increase), hits mostly activators; 410,000 compounds, 0.2% hits; active = well fitted activation curve with a large enough effect; inconclusive = small, poorly fitted or top-dose-only effect; inactive = flat fitted curve, though single readings scatter; cell line not stated here;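 also: potency is read from the fitted curve at half-maximal effect; % of control where 0% means no effect; nearly all actives have a fitted effect of over 65% in size; a mitochondrial uncoupler was the plate control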
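PINK1 protein, normally rapidly degraded, was detected by immunofluorescence after 24 hour compound treatment of a stable cell line. Titration data (5 concentrations) came from laser-scanning cytometry, with CCCP-treated wells as controls.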
The depositor's hits bear a star; ? = inconclusive; . = no result given; & = joins results of further samples; [ ] = another dose, or the depositor's remark.

Screens in order: D2 PAM	Six1-Eya2 blk	TRPML1 ag	TRPML1 inh	D2 agonist	PINK1 expr mod
1: N#CC(C#N)=C/C=C(\Nc1ccc(Cl)cc1)c1ccc(Cl)cc1
→ -3	0	9.2	41	-4.1	-0.3%
2: Cc1cccc(CS(=O)(=O)c2ncc(Cl)c(C(=O)Nc3c(C)cccc3C)n2)c1
→ -54	-9	1.0	-5	-13	-1.2%
3: COc1ccccc1NC(=O)COc1ccc(C(=O)OCC(=O)N2CCCC2=O)cc1OC
→ 2	2	-1.2	-2	-3.6	2.6%
4: CCCCN1C(N)=NC[C@@H]1C(C)O (some centres not stated)
→ -12	3	0.0	-11	0.2	-0.3%
5: Cc1ccc(OCCC(=O)OCC(=O)Nc2cc(C)nn2-c2ccccc2)cc1
→ 4	6	0.0	0	-0.3	-0.2%
6: CC1(C)Cc2c(sc(NC(=O)C(=O)N3CCN(CCO)CC3)c2C(N)=O)CO1
→ -4	2	0.4	-10	1.7	0.8%
7: C=CCc1cccc(/C=N/NC(=O)CNc2ccccc2)c1O
→ -20	-3	2.5	-17	-3.8	13%
8: Cc1ccc(/C=N/NC(=O)C[n+]2ccccc2)o1
→ -4	-6	-0.2	-15	-2.1	-1.0%
9: COc1ccc(NS(=O)(=O)c2cc(NC(=O)Cc3n[nH]c(=O)c4ccccc34)ccc2OC)cc1
→ -24	-9	1.5	21	0.9	0.9%
10: Nn1c(-c2ccc(F)cc2)nc2ccccc2c1=O
→ -3	-16	.	.	-1.0	0.7%
11: Cc1c(Nc2ncnc3c2cnn3-c2ccccc2)c(=O)n(-c2ccccc2)n1C
→ -11	-1	-0.3	34	1.3	1.9%[38.3 µM]
12: CCn1ccnc1CN1CCc2c([nH]c3ccccc23)C1C(C)(C)C (configuration not stated)
→ -4	-9	0.9	53	-1.3	12%
13: O=C(N=C1SC2CS(=O)(=O)CC2N1c1ccccc1)c1ccccc1 (configuration not stated)
→ -6	7	0.6	20	-1.0	-2.9%
14: Cc1cccn2c(=O)c(/C=C(\C#N)C(=O)NC3CCS(=O)(=O)C3)c(Oc3ccccc3Cl)nc12 (configuration not stated)
→ -1	-11	0.0	0	-0.2	21%
15: COc1ccc(CC(=O)Nc2sc3c(c2C(N)=O)CCCC3)cc1OC
→ 5	-4	0.8	1	5.8	19%

Fetched by compound from the entries so far (4):
Screens in order: D2 PAM	Six1-Eya2 blk	TRPML1 ag	TRPML1 inh	D2 agonist	PINK1 expr mod
8: Cc1ccc(/C=N/NC(=O)C[n+]2ccccc2)o1
→ -4	-6	-0.2	-15	-2.1	-1.0%
2: Cc1cccc(CS(=O)(=O)c2ncc(Cl)c(C(=O)Nc3c(C)cccc3C)n2)c1
→ -54	-9	1.0	-5	-13	-1.2%
11: Cc1c(Nc2ncnc3c2cnn3-c2ccccc2)c(=O)n(-c2ccccc2)n1C
→ -11	-1	-0.3	34	1.3	1.9%[38.3 µM]
15: COc1ccc(CC(=O)Nc2sc3c(c2C(N)=O)CCCC3)cc1OC
→ 5	-4	0.8	1	5.8	19%

Continued.
Screens in order: D2 PAM	Six1-Eya2 blk	TRPML1 ag	TRPML1 inh	D2 agonist	PINK1 expr mod
16: O=C(Nc1nnc(S(=O)(=O)N2CCOCC2)s1)c1cccc(F)c1
→ -5	1	0.0&-0.6	-8&3	-2.2	0.2%&0.6%
17: COc1ccc(CCNC(=O)C2CCCN2C(=O)NC2CCCCC2)cc1OC (configuration not stated)
→ -11	-1	1.9	-4	-2.5	0.6%
18: Cc1ccc(C2(CCNS(=O)(=O)c3ccc(C)cc3)CCOC(C(C)C)C2)cc1 (configuration not stated)
→ 7	2	1.1	35	-5.0	?
19: CSc1nc(NCc2ccco2)c2sc3nc(C(C)C)c4c(c3c2n1)CC(C)(C)OC4
→ -5	-13	-0.3	8	-0.2	11%
20: O=C(Nc1ccccc1Cl)N1CCC2(CC1)Oc1ccccc1C(=O)N2Cc1ccc(F)cc1
→ .	.	0.7	13	.	-1.0%
21: O=C(CCS(=O)(=O)c1ccc2c(c1)NC(=O)CO2)NCc1ccccc1
→ -3	-2	0.2	-22	-1.5	0.7%
22: CCOC(=O)C(NC(=O)c1ccccc1)C(C)(C)SCc1ccccc1 (configuration not stated)
→ -6	8	2.6	5	-1.2	3.0%
23: CCC(C)NCCCCOc1ccc(Br)cc1 (configuration not stated)
→ -33	-1	0.4	-2	-2.6	4.6%
24: O=C(COc1ccc(C2SCCS2)cc1)Nc1ccc(Cl)cc1
→ -3	7	0.8	-15	-4.8	16%
25: CCOc1ccc(C2c3[nH]c4ccccc4c3CCN2C(=O)CCC2CCCC2)cc1 (configuration not stated)
→ .	.	1.2	-17	.	2.4%
26: CCOc1ccc(S(=O)(=O)n2nc(C)cc2C)c2ccccc12
→ -11	-2	4.9	9	-0.7	3.5%[38.3 µM]
27: CCCOc1ccc(/C=N/NC(=O)C2CC2)c(OCCC)c1
→ -3	-1	3.7	-4	-2.9	14%
28: CCCOC(=O)c1ccc(-c2c(C)noc2-c2ccc(OC)cc2O)o1
→ 13	-9	1.6	38	2.6	-1.4%
29: O=C(O)c1ccc(Cl)c(NCc2cccs2)c1
→ -1	2	-0.2	3	-1.6	2.9%
30: Cc1cc(Cl)ccc1NC(=O)COC(=O)c1nc2nccc(C)n2n1
→ -2	-8	-0.6	4	0.2	0.5%
31: Cc1ccc(S(=O)(=O)N2CCC(=O)CC2c2ccccc2)cc1 (configuration not stated)
→ -4	2	0.1	55	-0.6	-0.1%
32: COc1ccc(-c2noc(CCC(=O)Nc3cccnc3)n2)cc1OC
→ -8	-7	-0.5	-4	-1.6	1.5%
33: Cc1cccc(NC(=O)Cn2cc(C=O)c3ccccc32)c1
→ -15	-3	-0.6	-21	-5.1	3.1%
34: CC(C)=CC(=O)Nc1ccccc1Br
→ -4	3	0.3	-5	-2.1	-0.5%[38.3 µM]
35: O=C(COC(=O)CNC(=O)c1ccccc1)Nc1ccccc1Cl
→ -8	11	-0.6	-21	-3.7	2.3%
36: Cc1ccc(NS(=O)(=O)c2ccc(NC(=O)CN(c3cc([N+](=O)[O-])ccc3C)S(C)(=O)=O)cc2)c(C)c1
→ 0	-16	0.7	10	3.3	3.7%
37: O=C(NNC(=O)c1cc([N+](=O)[O-])ccc1Cl)c1cccs1
→ -1	0	0.7	13	1.1	-1.0%
38: CN(C(=O)CSc1nc(N)cc(=O)[nH]1)C1CCCCC1
→ -6	0	-0.2	9	-2.1	-0.3%
39: Cc1c(C(=O)O)nn(-c2cccc(C(F)(F)F)c2)c(=O)c1C#N
→ 12	9	-0.1	-1	-0.2	0.5%
40: COc1cc(C23CCCN(CCC(C(C)(C)C)C2)C32OCCO2)cc(OC)c1OC (configuration not stated)
→ .	-28	0.7	.	.	?
41: CCCCCNC(=O)c1cc(S(=O)(=O)N2CCCC2)ccc1F
→ 0	7	0.2	-17	-2.1	3.7%
42: Cc1nc(Cl)sc1C(=O)Nc1ccc(C(C)(C)C)cc1
→ -2	5	0.8	-5	14	9.9%
43: COc1ccc(C(=O)NCC(c2cccs2)S(=O)(=O)c2cccs2)cc1 (configuration not stated)
→ .	.	-0.1	2	.	0.1%
44: COc1cc2nc(C(C)(C)C)oc(=O)c2cc1OC
→ -2	-15	0.0	42	-2.8	1.3%
45: CCCNC(=O)COc1coc(CN2CCN(C(=O)c3ccco3)CC2)cc1=O
→ 3	2	0.0	0	6.0	-0.1%

In a second layout: results already given.
(33) Cc1cccc(NC(=O)Cn2cc(C=O)c3ccccc32)c1
(34) CC(C)=CC(=O)Nc1ccccc1Br
entry no.	33	34
D2 PAM	-15	-4
Six1-Eya2 blk	-3	3
TRPML1 ag	-0.6	0.3
TRPML1 inh	-21	-5
D2 agonist	-5.1	-2.1
PINK1 expr mod	3.1%	-0.5%[38.3 µM]

The listing continues.
Screens in order: D2 PAM	Six1-Eya2 blk	TRPML1 ag	TRPML1 inh	D2 agonist	PINK1 expr mod
46: CCCCCOc1ccc(NC(=O)C(=O)NCCC2=CCCCC2)cc1
→ -16	-5	-0.6	4	-1.0	0.3%
47: Cc1ccccc1CSc1nc2nc(C)c(Cc3ccccc3)c(C)n2n1
→ .	.	3.1	46	.	3.4%
48: CC(C)(C)c1cc[n+](C2=C([O-])c3ccccc3C(=O)/C2=N\S(=O)(=O)c2cccs2)cc1
→ ?	-1	-0.4	25	?	-2.7%
49: Cc1ccccc1N=C(c1ccccc1)C1C(=O)c2ccccc2C1=O
→ 0	?	-0.5	.	8.0	1.4%
50: O=C(CC1C(=O)CCCC1=O)c1ccccc1
→ -4	6	-0.4	-8	-0.9	-0.4%
51: NS(=O)(=O)c1ccc(Nc2nc3ccccc3nc2NS(=O)(=O)c2cccc([N+](=O)[O-])c2)cc1
→ -4	-9	-0.5	-2	-4.3	-0.5%
52: O=C(CSc1ccc(-c2ccc3c(c2)OCO3)nn1)Nc1nccs1
→ -4	-15	-0.2	5	-2.6	9.4%
53: COc1cc(NCCCn2cnc3c(OC)ncnc32)cc(OC)c1OC
→ 1	-17	0.3	14	-0.5	-0.7%
54: CCOc1ccc(C2CC(c3ccc(F)cc3)n3ncnc3N2)cc1 (configuration not stated)
→ -7	7	0.3	3	-3.9	3.8%
55: O=C(C1CC(=O)N(c2ccc(F)c(Cl)c2)C1)N1CCOCC1 (configuration not stated)
→ -6	4	-0.4	12	-1.2	0.3%
56: COc1ccc(N2CC(NC(=O)N3CCN(C(=O)c4ccco4)CC3)CC2=O)cc1OC (configuration not stated)
→ -4	-2	0.1	33	-5.3	-1.5%
57: Cc1cc(C)nc(-n2ncc3c2CC(c2ccc(F)cc2)CC3=O)n1 (configuration not stated)
→ -2	-2	-0.2	45	-6.0	1.0%
58: Cc1nc(SC(C(=O)c2ccccc2)c2ccccc2)nc2ccccc12 (configuration not stated)
→ 11	1	4.0	-6	0.3	9.9%
